ID4 SMM = ID4 (human) binding. small molecule microarray, Flag-ID4 binding, fluorescence F/B. 1.2% of 31,000 active. calls only. P47928. AID 624137;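 active = spot signal over background at p below 0.07 in all four prints; compounds were printed on slides so no solution concentration is given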;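 note: a binder raises fluorescence above local background on the spot; about 2 pmol printed per array spot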
Target sequence (P47928 whole entry, looked up): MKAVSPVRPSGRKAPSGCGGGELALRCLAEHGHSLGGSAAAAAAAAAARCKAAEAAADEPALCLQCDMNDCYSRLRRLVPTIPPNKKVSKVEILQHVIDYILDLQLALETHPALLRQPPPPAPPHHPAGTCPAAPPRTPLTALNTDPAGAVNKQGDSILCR
Calls only; i = inactive; + = active, no number. An excerpt. The share of hits here may be higher or lower than overall.

No.	Structure	ID4 SMM
1	Cc1cccc(NC(c2ccc([N+](=O)[O-])cc2)c2ccc3ccc(C)nc3c2O)n1 (centres undefined)	i
2	O=C(C[C@H]1C=C[C@H](NC(=O)c2cccnc2)[C@H](CO)O1)NCCN1CCCCC1	i
3	Cc1cc(C)cc(NC(=O)CSc2nc3ccccc3s2)c1	i
4	N#Cc1ccccc1NC(=O)COc1ccc(Cl)cc1Cl	i
5	Cc1ccc2nc(-c3ccccn3)cc(C(=O)Nc3sc4c(c3C(N)=O)CCc3ccccc3-4)c2c1	i
6	C[C@H](O)C#Cc1cnc2c(c1)C(=O)N([C@H](C)CO)C[C@@H](C)[C@H](CN(C)Cc1ccc(-c3ccccc3)cc1)O2	i
7	COc1cc(NC(=O)c2ccccc2)c(OC)cc1NC(=O)COc1ccc(Cl)cc1Cl	i
8	CCCN(C)C[C@@H]1Oc2ncc(C#CC3(O)CCCC3)cc2C(=O)N([C@H](C)CO)C[C@@H]1C	i
9	O=C1c2ccccc2C(=O)N1CCCc1nc2ccccc2c(=O)n1-c1nc2ccccc2s1	i
10	CC(=O)C(C)Sc1ncnc2sc(-c3ccccc3)cc12 (centres undefined)	i
11	C[C@@H]1CN([C@@H](C)CO)C(=O)c2cccc(N(C)C)c2O[C@H]1CN(C)Cc1ccncc1	i
12	C/C=C/c1ccc2c(c1)O[C@H](CN(C)Cc1ccccc1)[C@@H](C)CN([C@H](C)CO)S2(=O)=O	i
13	COc1ccc(-c2ccc3c(c2)O[C@H](CN(C)C)[C@H](C)CN([C@H](C)CO)S3(=O)=O)cc1	i
14	CCCC#Cc1cnc2c(c1)C(=O)N([C@H](C)CO)C[C@H](C)[C@@H](CN(C)Cc1ccccc1F)O2	i
15	CCn1c(SCC(=O)Nc2cc(Cl)ccc2Cl)nnc1-c1ccncc1	i
16	Cc1cc(Cl)ccc1OC(C)C(=O)Nc1cccc(C(=O)O)c1 (centres undefined)	i
17	COc1cccc(NC(=O)COc2ccccc2C(=O)Nc2c(C)cccc2C)c1	i
18	N#Cc1nc(-c2cccs2)oc1NCCCN1CCOCC1	i
19	Cc1ccc(S(=O)(=O)N[C@@H]2CC[C@@H](CC(=O)NCCc3ccncc3)O[C@H]2CO)cc1	i
20	COc1ccc(C)cc1N(CC(=O)Nc1ccccc1C(F)(F)F)S(C)(=O)=O	i
21	C[C@@H]1CN([C@H](C)CO)C(=O)c2cc(-c3ccc(F)cc3)cnc2O[C@H]1CN(C)Cc1cccnc1	i
22	Cc1cc(C)c(OCC(=O)Nc2cccc(NC(=O)c3ccccc3C)c2)c(Br)c1	i
23	CCn1c2ccccc2n2c(SCC(=O)Nc3ccc(Cl)cc3)nnc12	i
24	C[C@H]1CN([C@@H](C)CO)C(=O)c2ccccc2-c2ccccc2CO[C@H]1CN(C)C(=O)c1ccncc1	i
25	C[C@@H]1CN([C@H](C)CO)C(=O)c2cc(/C=C/c3ccccc3)cnc2O[C@H]1CN(C)C	i
26	COc1cccc(C#Cc2ccc3c(c2)O[C@@H](CN(C)S(=O)(=O)c2ccccc2F)[C@H](C)CN([C@H](C)CO)S3(=O)=O)c1	i
27	COc1cc(NC(=O)Cn2nc(C(F)(F)F)c(Br)c2C)cc([N+](=O)[O-])c1	i
28	CC(=O)Nc1ccccc1NC(=O)COc1ccc(Br)cc1Cl	i
29	Cc1c(Cl)cccc1NC(=O)COc1cc(O)c2c(=O)cc(-c3ccccc3)oc2c1	i
30	Cc1cc(C)c(NC(=O)CSc2nnc(-c3ccncc3)n2-c2ccc(F)cc2)c(C)c1	i
31	O=C(N[C@H]1CC[C@@H](CC(=O)N2CCN(c3ccccc3)CC2)O[C@@H]1CO)c1ccccc1	i
32	O=C(CCC(=O)c1ccc(Oc2ccccc2)cc1)Nc1cccnc1	i
33	C[C@H](CO)N1C[C@H](C)[C@H](CN(C)C)Oc2ncc(C#Cc3cccnc3)cc2C1=O	i
34	CCCC#Cc1ccc2c(c1)O[C@H](CN(C)CC1CC1)[C@H](C)CN([C@H](C)CO)S2(=O)=O	i
35	O=C(O)C1=C[C@@H](c2ccc3c(c2)Cc2ccccc2-3)C[C@@H](OCc2ccc(CO)cc2)O1	i
36	O=C(NCC[C@@H]1CC[C@@H](NC(=O)C2CCC2)[C@@H](CO)O1)c1cc(Cl)cc(Cl)c1	i
37	O=C(C[C@H]1CC[C@@H](NC(=O)C2CC2)[C@H](CO)O1)NCC1CC1	i
38	C[C@H](CO)N1C[C@H](C)[C@H](CN(C)Cc2cccnc2)Oc2cc(/C=C/c3ccccc3)ccc2S1(=O)=O	i
39	Cc1ccc(CC(CC(=O)O)C(=O)Nc2ccc(Cl)cc2)cc1 (centres undefined)	i
40	NS(=O)(=O)c1ccc(NC(=O)CSC2=NCCS2)cc1	i
41	COc1cccc(NC(=O)N(C)C[C@@H]2Oc3ncc(C#Cc4ccncc4)cc3C(=O)N([C@@H](C)CO)C[C@@H]2C)c1	i
42	Cc1cc2oc(C(=O)Nc3sc4c(c3C(=O)NCc3ccco3)CCC4)c(C)c2cc1C	+
43	CCC(C(=O)Nc1ccccc1C(=O)N1CCOCC1)N1C(=O)c2ccccc2C1=O (centres undefined)	i
44	C[C@@H]1CN([C@H](C)CO)C(=O)c2cc(C3=CCCCC3)cnc2O[C@H]1CN(C)Cc1ccccc1F	i
45	COc1cc(NC(=O)COc2ccc([N+](=O)[O-])cc2)cc(OC)c1	i
46	CCOc1ccc(NC(=O)CSc2nnc3c4c5c(sc4nc(SC)n23)CCC5)cc1	i
47	COC(=O)C[C@H]1CC[C@H](NS(=O)(=O)c2ccc(OC)cc2)[C@@H](CO)O1	i
48	CC(=O)Oc1ccc(C(=O)Nc2ccc(S(=O)(=O)Nc3nccs3)cc2)cc1	i
49	COc1ccc(Cl)cc1NC(=S)NCCn1cc(Br)cn1	i
50	O=C(Nc1ccc(F)cc1)N[C@@H]1C=C[C@H](CC(=O)N2CCCCC2)O[C@H]1CO	i

By substructure: the entries above with bromine (4)
No.	Structure	ID4 SMM
22	Cc1cc(C)c(OCC(=O)Nc2cccc(NC(=O)c3ccccc3C)c2)c(Br)c1	i
27	COc1cc(NC(=O)Cn2nc(C(F)(F)F)c(Br)c2C)cc([N+](=O)[O-])c1	i
28	CC(=O)Nc1ccccc1NC(=O)COc1ccc(Br)cc1Cl	i
49	COc1ccc(Cl)cc1NC(=S)NCCn1cc(Br)cn1	i

The list continues:
No.	Structure	ID4 SMM
51	CSc1cccc(NC(=O)CSc2nnc(C)s2)c1	i
52	N#C[C@H]1[C@@H](c2ccccc2)[C@@H](CO)N1C(=O)C1CCCC1	i
53	C/C=C/c1cnc2c(c1)C(=O)N([C@H](C)CO)C[C@H](C)[C@@H](CN(C)C(=O)c1cccc(F)c1)O2	i
54	CNc1nc(SCC(N)=O)nc(N2CCOCC2)n1	i
55	C[C@@H]1CN([C@H](C)CO)S(=O)(=O)c2ccc(C#CC3CCCC3)cc2O[C@@H]1CN(C)C(=O)Nc1cc(F)ccc1F	i
56	COC(=O)c1c(-c2ccccc2)csc1NC(=O)C1CCCCC1C(=O)O (centres undefined)	i
57	Cc1ccc(NC(=O)Cn2nc(C)c([N+](=O)[O-])c2C)cc1Cl	i
58	CC(=O)c1cccc(N(CC(=O)Nc2ccccc2C)S(C)(=O)=O)c1	i
59	C[C@@H]1CN([C@@H](C)CO)C(=O)c2cc(C#CCc3ccccc3)cnc2O[C@@H]1CN(C)C(=O)C1CCC1	i
60	CCCNC(=O)N1[C@H](CO)[C@H](c2ccc(C3=CCCCC3)cc2)[C@@H]1C#N	i
61	C[C@@H](NC(=O)C[C@H]1CC[C@@H](NC(=O)C2CCC2)[C@H](CO)O1)c1ccccc1	i
62	COCC#Cc1ccc2c(c1)O[C@H](CN(C)CC1CC1)[C@H](C)CN([C@@H](C)CO)S2(=O)=O	i
63	CCN(CC(=O)Nc1ccccc1)S(=O)(=O)c1ccc(F)cc1	i
64	O=C(O)[C@]1(Cc2ccccc2)N=C(c2ccc(OCCCO)cc2)O[C@@H]1c1ccccc1	i
65	COc1cccc(-c2cnc3c(c2)C(=O)N([C@@H](C)CO)C[C@@H](C)[C@@H](CN(C)Cc2ccncc2)O3)c1	i
66	O=C(N[C@@H]1CC[C@H](CC(=O)N2CCN(c3ccccc3)CC2)O[C@H]1CO)c1ccncc1	i
67	Cc1cc(=O)[nH]c(SCCOc2ccc(Br)cc2Cl)n1	i
68	O=C(CSc1nc(N2CCCCC2)nc(N2CCCCC2)n1)NC1CCCCC1	i
69	Cc1ccccc1-c1nnc(SCC(=O)Nc2sc3c(c2C#N)CCCC3)n1C	i
70	Cn1c(SCc2nc(-c3cccs3)no2)nnc1C1CCCCC1	i
71	C[C@H](CO)N1C[C@H](C)[C@H](CN(C)Cc2cccnc2)Oc2ncc(C3=CCCC3)cc2C1=O	i
72	CC1(C)CC[C@]2(C(=O)O[C@@H]3O[C@H](CO[C@@H]4O[C@H](CO)[C@@H](O)[C@H](O)[C@H]4O)[C@@H](O)[C@H](O[C@@H]4O[C@H](CO)[C@@H](O)[C@H](O)[C@H]4O)[C@H]3O)CC[C@]3(C)C(=CCC4[C@@]5(C)CC[C@H](O)[C@@](C)(C(=O)O)C5CC[C@]43C)C2C1 (some centres undefined)	i
73	Cc1cc(I)ccc1NC(=O)Cn1nc(C)c([N+](=O)[O-])c1C	i
74	CC(C)c1ccc(NC(=O)CSc2nnc(-c3ccc(Br)cc3)n2C)cc1	i
75	C[C@@H]1CN([C@H](C)CO)C(=O)c2cc(C#Cc3ccccc3)cnc2O[C@H]1CN(C)CC1CCOCC1	i
76	Cc1ccc(N(C(C)C(=O)Nc2cc(Cl)cc(Cl)c2)S(C)(=O)=O)cc1C (centres undefined)	i
77	C[C@@H]1CN([C@@H](C)CO)C(=O)c2cc(C#CC3CC3)cnc2O[C@H]1CN(C)C	i
78	CCCC#Cc1cnc2c(c1)C(=O)N([C@@H](C)CO)C[C@@H](C)[C@H](CN(C)C(=O)C1CCC1)O2	i
79	Cc1nn(CC(O)COc2ccc3cc(Br)ccc3c2)c(C)c1Cl (centres undefined)	i
80	C[C@H](CO)N1C[C@H](C)[C@@H](CN(C)C(=O)C2CCC2)Oc2ncc(/C=C/c3ccccc3)cc2C1=O	i
81	CC(=O)Nc1cccc(NC(=O)c2cc(-c3cccnc3)nc3ccc(Br)cc23)c1	i
82	COc1ccc(-c2nnc3c4ccccc4c(C)nn23)cc1S(N)(=O)=O	i
83	O=C(CSc1nc2ccccc2[nH]1)Nc1c(Cl)cccc1Cl	i
84	COc1ccc(C)cc1NC(=O)CN(C1CCCCC1)S(=O)(=O)c1ccc(Cl)cc1	i
85	C[C@H]1CN([C@@H](C)CO)C(=O)c2cc(-c3cccc(C#N)c3)cnc2O[C@@H]1CN(C)C	i
86	Cc1ccc(NC(=O)COc2ccc(Br)cc2Cl)c([N+](=O)[O-])c1	i
87	Cc1ccc2c(c1)CCCN2C(=O)c1scc(S(=O)(=O)c2ccc(Cl)cc2)c1C	i
88	Cc1ccc(C2=NC(C(F)(F)F)(C(F)(F)F)N=C3SCCN32)cc1	i
89	O=C(CC1(O)C(=O)N(Cc2cccc3ccccc23)c2ccccc21)c1ccccn1 (centres undefined)	i
90	O=C(COc1ccc(Cl)cc1)NC(=S)Nc1ccccc1[N+](=O)[O-]	i
91	O=C(Nc1ccccc1C(=O)O)c1cccc(S(=O)(=O)Nc2cccc(C(F)(F)F)c2)c1	i
92	C[C@@H]1CN([C@@H](C)CO)C(=O)c2cc(-c3ccc(F)cc3)cnc2O[C@@H]1CN(C)C(=O)CN(C)C	i
93	C[C@H]1CN([C@@H](C)CO)C(=O)c2cc(-c3ccccc3F)cnc2O[C@H]1CN(C)Cc1ccccc1F	i
94	CC(=O)c1ccc(NC(=O)CSc2nc(O)c(-c3ccccc3)c(=O)[nH]2)cc1	i
95	Cc1c(Cl)cccc1NC(=O)CCC(=O)O	i
96	C[C@H]1CN([C@@H](C)CO)C(=O)c2cc(C#CC3CC3)cnc2O[C@H]1CN(C)C(=O)c1ccncc1	i
97	CO[C@@H](CN(C)C(=O)c1cnccn1)[C@H](C)CN([C@H](C)CO)S(=O)(=O)c1ccc(F)cc1	i
98	Cc1ccc(NC(=O)CSc2nc3ccccc3o2)cc1Cl	i
99	COc1ccc(I)cc1S(=O)(=O)NCc1ccccn1	i
100	C[C@H]1CN([C@@H](C)CO)S(=O)(=O)c2ccc(-c3ccccc3F)cc2O[C@H]1CN(C)CC1CC1	i

Compounds listed so far that contain a CF3 group:
No.	Structure	ID4 SMM
20	COc1ccc(C)cc1N(CC(=O)Nc1ccccc1C(F)(F)F)S(C)(=O)=O	i
27	COc1cc(NC(=O)Cn2nc(C(F)(F)F)c(Br)c2C)cc([N+](=O)[O-])c1	i
88	Cc1ccc(C2=NC(C(F)(F)F)(C(F)(F)F)N=C3SCCN32)cc1	i
91	O=C(Nc1ccccc1C(=O)O)c1cccc(S(=O)(=O)Nc2cccc(C(F)(F)F)c2)c1	i

More structures follow:
No.	Structure	ID4 SMM
101	C[C@H]1CN([C@@H](C)CO)C(=O)c2ccccc2-c2ccccc2CO[C@H]1CN(C)S(=O)(=O)CC(F)(F)F	i
102	CCn1c(SCC(=O)Nc2ccc(Cl)cc2C)nnc1-c1ccc(Cl)cc1	i
103	CCn1c(SCC(=O)Nc2ccc(Br)cc2F)nnc1-c1ccccc1Cl	i
104	C[C@H](NC(=O)C[C@H]1C[C@@H]2c3cc(NC(=O)Cc4ccncc4)ccc3O[C@@H]2[C@@H](CO)O1)c1ccccc1	i
105	Cc1ccc2nc(SCC(=O)NCc3ccccc3)[nH]c2c1	i
106	CC(C)(C)c1cc(-c2csc(-c3ccno3)n2)cc(C(C)(C)C)c1O	i
107	CC1=CC(CC2(C)OC2COc2c3occc3cc3ccc(=O)oc23)OC1=O (centres undefined)	i
108	CCc1cccc(C)c1NC(=O)CSc1nnc(-c2ccncc2)n1-c1ccc(C)cc1	i
109	O=C(C[C@H]1C=C[C@@H](NC(=O)CC2CC2)[C@H](CO)O1)NCc1ccc(-c2ccccc2)cc1	i
110	O=C(Cc1ccccc1)N[C@H]1C=C[C@H](CC(=O)N2CCOCC2)O[C@H]1CO	i

Assay outcomes (PubChem)
